# Screens from PubChem BioAssay.
# HCMV NEC inh – disrupts HCMV UL50-UL53 complex binding | HTRF UL50-UL53 interaction, normalized percent inhibition | inhibition, % (no concentration beside the values) | 190,000 tested, 0.15% active;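 active means both replicates at 50% or more, plus weaker picks with an unusually low signal ratio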;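 further: stock transfer was 100 nL into about 20 µL; 0% = negative control wells and 100% = wells with untagged competitor protein; inactives centre near -12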
# Sa growth inh – blocks Staphylococcus aureus growth | S. aureus RN4220 growth, OD600, 20 h, 42 °C; active compounds read low | AID 720641 | 170,000 tested, 0.53% active | relative growth, % (concentration not given with the values);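 active means growth at 42 °C up to 50% and 20 or more points under that at 30 °C, or under 10% at both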;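 further: 300 nL library stock went into each well; scaled to the means of positive and negative controls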
# GIV-Gai inh – inhibitors of GIV GBA-motif binding to rat Galpha-i3 | AID 1224905 | percent of control (FP), % (test concentration not listed) | 210,000 tested, 0.42% active | Galpha-i3/FITC-GIV peptide fluorescence polarization, 90 min; active compounds read low; scaled: aluminum fluoride 0%, vehicle 100% | P08753;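 active means replicate mean at 85% of control or lower, very high polarization wells dropped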;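 further: lower values mean more displacement of the GIV peptide from Galpha-i3; wells of about 15 µL received 100 nL stock; the first replicate is given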
# Target sequence (P08753 whole entry, looked up): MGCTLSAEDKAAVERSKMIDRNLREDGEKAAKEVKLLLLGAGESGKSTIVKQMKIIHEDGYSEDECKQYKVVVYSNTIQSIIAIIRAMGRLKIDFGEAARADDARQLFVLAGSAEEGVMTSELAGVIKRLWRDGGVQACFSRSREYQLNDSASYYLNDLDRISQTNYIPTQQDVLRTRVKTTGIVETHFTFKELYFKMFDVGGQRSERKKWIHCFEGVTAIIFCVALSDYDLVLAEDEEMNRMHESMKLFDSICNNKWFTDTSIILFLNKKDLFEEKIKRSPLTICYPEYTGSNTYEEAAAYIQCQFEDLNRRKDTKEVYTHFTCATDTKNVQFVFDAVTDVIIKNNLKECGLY
# Sa growth inh second temp – also measured in Sa growth inh; calls as there; relative growth, %; measured here: growth at 30 °C;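 optical density after 20 h as mean of two plates; 100% = untreated growth and lower means inhibition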
# An asterisk follows results filed as active; · = not tested or not shown; & = joins results of further samples. This is a subset; the hit share may differ from the screen's.
[1] COC(=O)c1sc2nc3c(cc2c1N)CN(C(C)C)CC3
[2] Cc1ccc(CN2CCN(CC(=O)N3CCC4(CC3)OCCO4)C2=O)cc1
[3] Cc1nc2ccccc2c(=O)n1-c1cccc(C(F)(F)F)c1
[4] O=C1CC(c2ccc(C(F)(F)F)cc2)c2c(c3ccccc3oc2=O)O1 (centres undefined)
[5] Cc1cccc(-n2c(/C=C/c3c[nH]c4ccccc34)nc3ccccc3c2=O)c1
[6] COC(=O)C1=C(N)Oc2c(c(=O)oc3ccccc23)C1c1cccnc1 (centres undefined)
[7] CC(C)N1CCN(Cc2ccccc2)CC1
[8] COCc1cc(C2SCC(=O)Nc3c2c(-c2ccccc2)nn3-c2ccccc2)ccc1OC (centres undefined)
[9] COc1cccc(/C=C/c2nc3ccccc3c(=O)n2-c2ccc(Cl)cc2)c1OC
[10] CC(N)Cc1c[nH]c2ccc(OCc3cccs3)cc12 (centres undefined)
entry no. | 1 | 2 | 3 | 4 | 5 | 6 | 7 | 8 | 9 | 10
HCMV NEC inh | -122 | · | -3 | · | -7 | -12 | -8 | -12 | · | -5&-7&-7&-26
Sa growth inh | · | 96 | 90 | 125 | 101 | 98 | 103 | · | 92 | ·
Sa growth inh second temp | · | 93 | 90 | 91 | 87 | 80 | 86 | · | 87 | ·
GIV-Gai inh | 125 | 108 | · | 97 | 110 | 103 | 108 | 103 | 102 | 98

[11] CN1C(=O)N(C)C(=O)C(Cc2ccccn2)(Cc2ccccn2)C1=O
[12] C[N+](C)(C)CC1CCCC1O (centres undefined)
[13] CC(=O)Nc1cc(C(=O)N2CCC3(CC2)OCCO3)ccc1Sc1ccc(F)cc1
[14] CCCc1c(C)nc(-c2ccc(C)cc2)nc1OC(=O)N(C)C
[15] CCCCc1nc2ccccc2c(=O)n1-c1ccc(C)cc1
[16] NCCc1nc2cc(C(F)(F)F)ccc2s1
[17] C=CC[C@]1(O)CCC2C3CCC4=CC(=O)CCC4=C3C=C[C@@]21C (some centres undefined)
[18] Cc1cc(C(=O)O)nn1C(C)(C)C
[19] CCC12CN3CC(CC)(CN(C1)C3c1ccccn1)C2O (centres undefined)
[20] COc1ccccc1NC1=NC(C)(C)CS1
entry no. | 11 | 12 | 13 | 14 | 15 | 16 | 17 | 18 | 19 | 20
HCMV NEC inh | -18 | -8 | 3 | -8 | · | 14 | -77 | -3 | -14 | -31
Sa growth inh | 88 | 80 | 87 | 97 | 97 | 114 | 99 | 100 | · | 110
Sa growth inh second temp | 70 | 91 | 84 | 90 | 96 | 99 | 95 | 76 | · | 90
GIV-Gai inh | 101 | · | 105 | 97 | 96 | · | · | 107 | 101 | ·

# Just GIV-Gai inh, Sa growth inh and HCMV NEC inh, for some of the entries so far:
entry	SMILES	GIV-Gai inh	Sa growth inh	HCMV NEC inh
14	CCCc1c(C)nc(-c2ccc(C)cc2)nc1OC(=O)N(C)C	97	97	-8
15	CCCCc1nc2ccccc2c(=O)n1-c1ccc(C)cc1	96	97	·

# The listing continues:
[21] CNCCc1ccc(O)c(O)c1
[22] COc1ccc2oc3c(c2c1)NC(=O)CN=C3c1ccc(F)cc1
[23] CC1=C(C(=O)OCc2ccccc2)C2(C(=O)Nc3ccccc32)C(C#N)=C(N)O1 (centres undefined)
[24] CN1C(=O)CN=C(c2ccccc2)c2cc([N+](=O)[O-])ccc21
[25] Cc1cccc(NC(N)=S)c1
[26] CCCCc1ncc(CNCCc2c(C)[nH]c3ccc(OC)cc23)[nH]1
[27] Cc1c(Cl)cccc1NC(=O)CN1C(=O)C(C)N=C(c2ccccc2)c2ccccc21 (centres undefined)
[28] OC1(c2ccc(F)cc2)CC2CCC(C1)N2Cc1nnnn1C1CCCCC1 (centres undefined)
[29] CCN1C(=O)C2(Sc3ccccc3C2=O)C(=O)N(CC)C1=S
[30] CC1CC2(O)c3no[n+]([O-])c3CCC2N1O (centres undefined)
entry no. | 21 | 22 | 23 | 24 | 25 | 26 | 27 | 28 | 29 | 30
HCMV NEC inh | -24 | -15 | -18 | -159 | -17 | -13 | -5 | 13 | -2 | -22
Sa growth inh | · | 102 | · | 88 | 104 | 75 | 101 | 94 | 83 | 105
Sa growth inh second temp | · | 74 | · | 87 | 96 | 85 | 77 | 90 | 92 | 101
GIV-Gai inh | 102 | 105 | 104 | · | 103 | 21* | 108 | 100 | · | 100

[31] COc1ccc2[nH]cc(CN(C)C)c2c1
[32] Cc1ccc(C(C)C)cc1OP1(=O)COc2ccccc2OC1
[33] O=C(Cn1cnc([N+](=O)[O-])n1)Nc1ccc(Cl)cc1C(=O)c1ccccc1
[34] CCOC(=O)CN1C(=O)C2(C(C(=O)OCC)=C(N)OC3=C2C(=O)CC(C)(C)C3)c2ccccc21 (centres undefined)
[35] COC(=O)c1ccccc1N=Cc1c(O)[nH]c(=S)[nH]c1=O
[36] COc1cc(C(=O)CN2CCOCC2)cc(OC)c1OC
[37] O=C1NC(=O)C(=Cc2ccc(Sc3ccc(Cl)cc3)o2)C(=O)N1
[38] O=C(NC1CN2CCC1CC2)c1cc2ccoc2cn1 (centres undefined)
[39] Fc1ccc(C2NCCc3[nH]cnc32)c(F)c1F (centres undefined)
[40] Cc1nnc(NC(=O)c2cccn(Cc3ccccc3F)c2=O)s1
entry no. | 31 | 32 | 33 | 34 | 35 | 36 | 37 | 38 | 39 | 40
HCMV NEC inh | 18 | · | -72 | · | · | -12 | 6 | -17 | -12 | ·
Sa growth inh | 94 | 109 | · | 122 | 91 | 92 | 95 | · | · | 112
Sa growth inh second temp | 88 | 78 | · | 91 | 84 | 90 | 65 | · | · | 104
GIV-Gai inh | 109 | 102 | 90 | 101 | 97 | · | 106 | 92 | 98 | 103

# Continued, starting with the last four of the part before.
[37] O=C1NC(=O)C(=Cc2ccc(Sc3ccc(Cl)cc3)o2)C(=O)N1
[38] O=C(NC1CN2CCC1CC2)c1cc2ccoc2cn1 (centres undefined)
[39] Fc1ccc(C2NCCc3[nH]cnc32)c(F)c1F (centres undefined)
[40] Cc1nnc(NC(=O)c2cccn(Cc3ccccc3F)c2=O)s1
[41] O=C1NC(=O)N(c2ccccc2F)C(=O)/C1=C/c1cn(CC(=O)N2CCOCC2)c2ccccc12
[42] O=C(c1cc2c(s1)CCCCCC2)N1CCC2(CC1)OCCO2
[43] COc1ccc(OCC(=O)N2CCN(CCc3ccncc3)CC2)cc1
[44] O=C(COc1ccc(Cl)cc1Cl)OCC1CCCN2CCCCC12 (centres undefined)
[45] Cc1ccc2c(c1)C1CN(C)CCC1N2C(=O)Nc1cccc(C(F)(F)F)c1 (centres undefined)
[46] Cn1c(C(F)(F)F)nn(CN2CC=C(c3ccccc3)CC2)c1=S
[47] CCc1ccc(CN2CCN(C(=O)Cc3ccccc3)CC2)cc1
[48] O=C1NC(=O)N(Cc2ccccc2)C(=O)/C1=C\N1CCCc2ccccc21
[49] C[N+](C)(C)CC(=O)O
[50] N#CC(C#N)=Cc1cccn1-c1ccc(Cl)cc1
entry no. | 37 | 38 | 39 | 40 | 41 | 42 | 43 | 44 | 45 | 46 | 47 | 48 | 49 | 50
HCMV NEC inh | 6 | -17 | -12 | · | 4 | 4 | -5 | 0 | -26 | -40 | -16 | -1 | -25 | -50
Sa growth inh | 95 | · | · | 112 | · | 104 | 102 | 94 | 75 | 83 | 83 | 115 | · | 106
Sa growth inh second temp | 65 | · | · | 104 | · | 105 | 95 | 96 | 79 | 87 | 81 | 94 | · | 92
GIV-Gai inh | 106 | 92 | 98 | 103 | 103 | 101 | 99 | · | · | · | 100 | 103 | 98 | 108

[51] Cc1cc(N)n(C2CCN(C)CC2)n1
[52] CC(C)NCc1ccc2c(c1)OCO2
[53] CC(=O)O[C@]1(C)C(=O)OC/C2=C/CN(C)CCC(OC(=O)[C@@](O)(C(C)O)C[C@@H]1C)C2=O (some centres undefined)
[54] CC1(C)C2CCC1(C)C(N1CCNCC1)C2 (centres undefined)
[55] CCCn1c(C(=O)c2ccc(OC)cc2)nc2ccccc21
[56] O=c1[nH]c2ccccc2n1CCCN1CCC(n2c(=O)[nH]c3cc(Cl)ccc32)CC1
entry no. | 51 | 52 | 53 | 54 | 55 | 56
HCMV NEC inh | 0 | -39 | -16 | 1 | -20 | -18&-5&-7&-5&-10&-16
Sa growth inh | 118 | 103 | 89 | 95 | 100 | 94&107
Sa growth inh second temp | 88 | 83 | 85 | 98 | 83 | 74&95
GIV-Gai inh | 101 | 103 | 105 | 99 | · | 102&107

# Reprinted at random: 6 compounds from above, in no set order.
[54] CC1(C)C2CCC1(C)C(N1CCNCC1)C2 (centres undefined)
[55] CCCn1c(C(=O)c2ccc(OC)cc2)nc2ccccc21
[53] CC(=O)O[C@]1(C)C(=O)OC/C2=C/CN(C)CCC(OC(=O)[C@@](O)(C(C)O)C[C@@H]1C)C2=O (some centres undefined)
[51] Cc1cc(N)n(C2CCN(C)CC2)n1
[52] CC(C)NCc1ccc2c(c1)OCO2
[56] O=c1[nH]c2ccccc2n1CCCN1CCC(n2c(=O)[nH]c3cc(Cl)ccc32)CC1
entry no. | 54 | 55 | 53 | 51 | 52 | 56
HCMV NEC inh | 1 | -20 | -16 | 0 | -39 | -18&-5&-7&-5&-10&-16
Sa growth inh | 95 | 100 | 89 | 118 | 103 | 94&107
Sa growth inh second temp | 98 | 83 | 85 | 88 | 83 | 74&95
GIV-Gai inh | 99 | · | 105 | 101 | 103 | 102&107
